# D2 ag: Beta-Arrestin HTS for Positive Allosteric Modulators of the Human D2 Dopamine Receptor: Agonists. AID 624465, 2012. DiscoveRx PathHunter D2 beta-arrestin, luminescence, 90 min; 100% = 57 uM dopamine signal. activation, % (concentration not given with the values). D(2) dopamine receptor (Homo sapiens), P14416. hit rate 0.084% among 360,000; in the data active = activation above about 40%; inconclusive = about 15% to 40%; inactive = below about 15%; note: compound concentration not given in the record; the text of the record calls up to 30% inactive
# Target sequence (P14416 whole entry, looked up): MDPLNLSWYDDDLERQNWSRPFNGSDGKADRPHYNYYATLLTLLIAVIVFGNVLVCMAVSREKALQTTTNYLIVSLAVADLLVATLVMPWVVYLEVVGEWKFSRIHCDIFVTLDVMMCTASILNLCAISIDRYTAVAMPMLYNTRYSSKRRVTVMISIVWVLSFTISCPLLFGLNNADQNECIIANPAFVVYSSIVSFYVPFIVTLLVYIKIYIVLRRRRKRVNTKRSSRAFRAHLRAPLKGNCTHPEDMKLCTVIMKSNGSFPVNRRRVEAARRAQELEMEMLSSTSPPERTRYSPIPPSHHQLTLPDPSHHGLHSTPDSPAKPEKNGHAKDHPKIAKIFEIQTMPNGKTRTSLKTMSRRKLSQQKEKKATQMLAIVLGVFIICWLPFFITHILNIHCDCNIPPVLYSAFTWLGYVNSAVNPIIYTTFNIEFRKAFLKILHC
#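 DiscoveRx PathHunter D2 beta-arrestin cells (2,100/well) attached overnight, then compound-stimulated 90 min at 37 C in HBSS/10 mM HEPES/0.1% Tween-20 buffer; beta-galactosidase complementation read by luminescence after 1 h at ambient temperature. Dopamine 57 uM final (EC100) as control.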
# TRPML1 blocker: qHTS for Inhibitors of the Human Mucolipin Transient Receptor Potential 1 (TRPML1); Mucolipin-1 (Homo sapiens), Q9GZU1; TRPML1-inducible cells, Ca2+ dye fluorescence, FDSS; active compounds read low; inhibition of EC80 agonist-evoked calcium signal; activity change, negative = inhibition, % (no concentration beside the values); hit rate 0.02% among 390,000; in the data active means activity change below about -50%; inconclusive means about -30% to -50%; inactive means above about -30%;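 note: stimulus is agonist 54-4 at its EC80 concentration; % is set by controls: 0 for no effect and ±100 for the full control effect; compound concentration not given in the record; the text of the record puts the active cut at -80%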
# Target sequence (Q9GZU1 whole entry, looked up): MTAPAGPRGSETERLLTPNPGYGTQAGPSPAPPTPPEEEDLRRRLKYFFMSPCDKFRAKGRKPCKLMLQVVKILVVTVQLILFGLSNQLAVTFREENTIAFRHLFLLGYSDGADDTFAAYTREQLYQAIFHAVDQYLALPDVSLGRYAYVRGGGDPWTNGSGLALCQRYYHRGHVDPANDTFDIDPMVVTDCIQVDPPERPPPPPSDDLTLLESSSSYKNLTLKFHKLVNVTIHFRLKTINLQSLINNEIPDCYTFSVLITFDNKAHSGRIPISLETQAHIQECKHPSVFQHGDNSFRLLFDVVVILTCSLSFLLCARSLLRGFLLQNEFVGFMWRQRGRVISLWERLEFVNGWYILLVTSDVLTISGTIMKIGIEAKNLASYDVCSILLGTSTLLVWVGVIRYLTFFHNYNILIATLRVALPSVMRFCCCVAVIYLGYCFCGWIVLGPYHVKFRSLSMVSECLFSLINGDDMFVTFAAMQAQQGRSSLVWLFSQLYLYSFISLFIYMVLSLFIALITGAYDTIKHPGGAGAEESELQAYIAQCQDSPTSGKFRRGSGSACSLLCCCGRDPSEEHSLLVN
#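 TRPML1-DL cells, Tet-induced overnight (~16 h, 37 °C) at 1,500 cells/well, were loaded with Ca8 no-wash dye plus quencher for 45-90 min at room temperature. Compounds were pinned during FDSS kinetic reading; agonist 54-4 at EC80 (4 uM final) then added.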
# TRPML1 agonist: qHTS for Agonists of the Human Mucolipin Transient Receptor Potential 1 (TRPML1). TRPML1-expressing cells, Ca2+ dye fluorescence, FDSS; host cell line not named in the record; reference of the full effect not given here. Mucolipin-1 (Homo sapiens), Q9GZU1. activation, % (no concentration beside the values). hit rate 0.12% among 410,000; in the data active = activation above about 50%; inconclusive = about 30% to 50%; inactive = below about 30%; note: 0% is about no effect; the text of the record puts the active cut at 80%
#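 Kinetic FDSS Ca2+ read in Tet-induced TRPML1-DL cells (ABD Ca8 dye plus quencher, 45-90 min RT loading): baseline, then compound, then 110 s agonist window; EC80 agonist 54-4 at 4uM final added afterwards for a 110 s antagonist window.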
# PINK1 modulator: A Quantitative High throughput Screen to Identify Chemical Modulators of PINK1 Expression | AID 624263, 2012 | hit rate 0.2% among 410,000 | PINK1 immunofluorescence, high-content cytometry, 24 h | Potency, µM (doses to about 76.6 µM), for inactives: at the top dose activation (PINK1 increase), hits mostly activators; active = well fitted activation curve with a large enough effect; inconclusive = small, poorly fitted or top-dose-only effect; inactive = flat fitted curve, though single readings scatter; cell line not stated here;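 note: potency is the fitted concentration of half-maximal effect; % of control where 0% means no effect; nearly all actives have a fitted effect of over 65% in size; a mitochondrial uncoupler was the plate control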
#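 Readout is PINK1 immunofluorescence, quantified alongside mitochondrial, cell and nuclear markers by laser-scanning microplate cytometry. Cells from a stable line were exposed to compound titrations (5 concentrations) for 24 hours, with CCCP controls.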
# Six1-Eya2 inh: qHTS Assay for Inhibitors of the Six1/Eya2 Interaction. Homeobox protein SIX1 (Homo sapiens) + Protein phosphatase EYA2 (Homo sapiens), …. AlphaScreen GST-Six1/His-Eya2 binding, biochemical; active compounds read low; control for the full effect not named in the record. activity change, % (test concentration not listed). hit rate 0.56% among 360,000. AID 651725, 2012; in the data active = activity change below about -65%; inconclusive = about -30% to -65%; inactive = above about -30%; note: % is set by controls: 0 for no effect and ±100 for the full control effect
#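 AlphaScreen with GST-Six1 and His-Eya2 (5X mix: 250 nM and 500 nM), glutathione donor and nickel acceptor beads; buffer 50 mM Tris pH 8.0, 300 mM NaCl, 1 mM TCEP; 1 h at 37 C in the dark.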
# CtBP-E1A inh: qHTS Assay for Inhibitors of the CtBP/E1A Interaction | hit rate 0.49% among 340,000 | activity change, % (no concentration beside the values) | AlphaScreen GST-E1A/His-CtBP binding, 1536-well; active compounds read low; control for the full effect not named in the record | AID 651724, 2012 | CtBP / adenovirus E1A interaction (AlphaScreen); in the data active means activity change below about -65%; inconclusive means about -30% to -65%; inactive means above about -30%; note: % is set by controls: 0 for no effect and ±100 for the full control effect
#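 GST-E1A and His-tagged CtBP (125 nM each as 5X stock) were preincubated with pin-transferred compound for 2 h at 37 °C in the dark, then glutathione donor and nickel acceptor beads were added for 1 h before AlphaScreen reading.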
# * hit, by the source's call; ? = inconclusive; . = no result given; & = joins results of further samples; [ ] = another dose, or the depositor's remark. An unsorted share of the library (roughly 1% active in at least one column).
SMILES,D2 ag,TRPML1 blocker,TRPML1 agonist,PINK1 modulator,Six1-Eya2 inh,CtBP-E1A inh
COc1cc(-c2c(-c3ccsc3)sc3ccccc23)cc(OC)c1OC,1.0,-4.0,0.2,6.0%,-3.3,.
Cc1ccc(CNC(=O)CSc2nc(=O)[nH]c3c2CCCC3)cc1,.,8.9,-0.7,2.2%,.,.
COc1ccc(NC(=O)c2cc3c(CO)cnc(C)c3oc2=Nc2cccc(C)c2)c(OC)c1,-1.0,18.2,0.9,0.8%,-8.7,-2.0
COc1ccc(/C=C/C(=O)N2CCC(C(N)=O)CC2)cc1S(=O)(=O)N1CCOCC1,-4.3,20.0,-0.4,-0.1%,2.5,3.5
CCOC(=O)C1CCN(C(c2ccc(F)cc2)c2sc3nc(-c4ccco4)nn3c2O)CC1 (configuration not stated),.,-5.2,1.3,2.0%,.,.
Cc1cccc(NC(=O)CNC(=O)c2sc3ccccc3c2Cl)n1,0.4,7.7,4.2,15.2%,-0.4,-9.7
O=C1C2CC=CCC2C(=O)N1CC1CCCO1 (configuration not stated),-3.2,-21.3,0.6,0.2%,13.3,7.0
OCc1c[nH]c2ccccc12,-3.9,-0.6,-0.3,1.2%,-4.9,-12.3
CCOc1ccccc1Oc1cn[nH]c1-c1ccc(O)cc1O,0.5,7.6,3.3,1.7%,-8.0,-5.0
O=C(c1ccc(NC2=NC3CS(=O)(=O)CC3S2)cc1)N1CCN(Cc2ccccc2)CC1 (configuration not stated),-2.4,8.8,-0.1,-0.7%,-0.1,-24.8
CCn1c(=O)c([N+](=O)[O-])c(NCC(O)c2ccccc2)c2ccccc21 (configuration not stated),-3.5,0.8,0.5,0.7%,-16.8,-7.1
Cc1ccccc1OCc1nnc(SCC(=O)O)n1-c1cccc(Cl)c1,-4.0,12.6,0.6,1.2%,-1.8,-10.5
COCCNC(=O)C1CC(c2cccc([N+](=O)[O-])c2)=NO1 (configuration not stated),-0.4,15.0,-0.8,-0.9%,11.1,29.6
COC(=O)CNc1ccc2c(c1)OCO2,-2.7,-15.0,-0.2,-1.1%,11.1,-1.7
N#Cc1ccccc1CN1C(=O)NC2(CCCCCC2)C1=O,0.0,-3.3,-0.3,1.8%,4.3,.
Cn1nccc1C(=O)Nc1ccn(C23CC4CC(CC(C4)C2)C3)n1,-0.5,-7.5,1.8,2.4%,-0.9,8.8
COc1ccc(NC(=O)C2CSC3c4ccccc4C(=O)N23)cc1 (configuration not stated),-1.4,9.4,0.1,1.7%,-3.0,-1.0
COc1ccc(CN2CCN(CCC(C)C)C(CCO)C2)cc1Cn1cccn1 (configuration not stated),-4.7,14.2,1.0,-1.0%,11.0,-1.4
CCCOC(=O)NC(CC)COC(=O)Nc1cc(C)ccc1C (configuration not stated),-2.6,3.8,-0.1,0.8%,1.2,6.9
COc1cc(CC(=O)N2CCN(S(=O)(=O)c3ccc(C(C)C)cc3)CC2)cc(OC)c1OC,-2.1,1.0,-0.6,-0.3%,2.1,-2.6
Cc1ccc(NC(=O)CSc2ccc(C(N)=O)cc2[N+](=O)[O-])cc1,0.9,-1.7,-0.9,9.4%,4.4,-4.1
O=C(Nc1ncccn1)c1cccc(F)c1,2.4,-3.3,0.0,0.1%,3.5,-1.6
CCOC(=O)c1cc2c(C)n(-c3ccc(OCC)cc3)c(C)c2ccc1=O,-1.7,26.8,2.0,?,-15.0,2.1
Cc1cccc(NS(=O)(=O)c2nnc(NC(=O)C3CCCCC3)s2)c1,-0.8,29.4&-14.5,-0.3&-0.4,1.7%&-0.9%,-0.9,-1.0
COCCN=C1Sc2nc3cc4c(cc3cc2CN1CC1CCCO1)OCO4 (configuration not stated),-6.0,-18.7,-0.6,7.8%,2.5,12.6
CC1(c2ccccc2)O[C@@H]2C[C@H]3[C@@H]4CCC5=CC(=O)C=C[C@]5(C)[C@@]4(F)[C@@H](O)C[C@]3(C)[C@]2(C(=O)CO)O1 (some centres not stated),1.5,18.6,3.4,1.2%,-20.0,-8.7
O=C(O)CCC(=O)CCC(=O)c1ccc(Cl)cc1,-2.1,-13.4,0.0,7.3%[38.3 µM],2.4,10.5
COc1ccc(CN2C(=O)CS/C2=N/N=C/c2ccccc2)cc1,-2.4,?,1.5,1.6%,3.2,11.0
CCOc1ccccc1C(=O)Nc1cc(C(=O)NCCc2ccccc2)ccc1Cl,-0.4,-1.3,1.9,?,3.1,-0.2
C=CCNc1nc2ccccc2nc1NS(=O)(=O)c1cccs1,-2.7,2.2,-0.6,-0.7%,11.2,-0.3
CN1CCc2c(sc(NC(=O)CSc3ccc(F)cc3)c2-c2nc3ccccc3s2)C1,.,-12.7,66.1*,?,.,.
CCOc1ccc(NC(=O)CCc2c(C)nn(-c3ccc(N4CCCC4)nn3)c2C)cc1,.,-0.6,1.0,0.4%,.,.
O=S(=O)(c1cccc(S(=O)(=O)N2CCC(Cc3ccccc3)CC2)c1)N1CCOCC1,0.8,4.1,0.2,-0.3%,-0.3,-0.5
CCN(CC)S(=O)(=O)c1ccc(N2CCOCC2)c(NC(=O)c2ccc(=O)n(C)n2)c1,-2.7,-6.6,0.1,-0.2%,-1.0,-12.6
O=C(C1CCCCC1)N1CCN(c2ncccn2)CC1,-2.2,2.5,-0.7,-1.3%,-0.5,10.4
COc1ccc(C(=O)COc2ccccc2C(N)=O)cc1,1.8,-10.6,0.5,-0.3%,-1.8,4.6
O=C(C1CC1)N1CCc2cc(S(=O)(=O)N3CCCc4ccccc43)ccc21,-3.9,16.0,2.3,2.4%,-0.6,2.1
C=CCN1C(=O)CSc2ccc(C(=O)NC(C)c3ccccc3)cc21 (configuration not stated),-4.0,-27.2,-0.2,-1.0%,-2.6,-3.7
CN(NS(=O)(=O)c1cccs1)c1ncc(C(F)(F)F)cc1Cl,-3.1,-5.3,0.0,0.7%,-27.1,?
COCC1CCN(C(=O)C2CCC(=O)N(Cc3cccc(F)c3)C2)CC1 (configuration not stated),-0.5,-13.4,0.1,-1.0%,5.8,0.2
CCOC(=O)C1CCCN(CCCc2ccccc2)C1 (configuration not stated),-3.2&-1.2,7.4&-1.4,-0.2&-0.4,2.8%,2.6&3.2,2.8&11.8
COc1ccc2c3c(c(=O)oc2c1OCC(=O)O)CCCC3,-2.2,9.5,0.9,0.4%,-10.2,-4.4
CCN(CC(=O)Nc1c(F)cccc1F)C(=O)Cn1c(=O)cnc2ccccc21,1.5,33.8,0.7,0.2%,-0.7,1.6
O=C1C(Cc2ccccc2)Nc2ncnc(N3CCOCC3)c2N1Cc1ccccc1 (configuration not stated),-3.6&-4.5,4.8&-16.0,-0.7&-0.2,6.9%&3.0%,-3.2&20.9,2.7&0.0
CN(C)c1ccc(CNC(=O)C2CCN(S(=O)(=O)c3ccc4[nH]c(=O)ccc4c3)CC2)cc1,.,-12.1,0.9,-1.8%,.,.
COc1cc(C2NC(=O)NC(C)=C2C(=O)NCc2ccccc2)c(Cl)cc1O (configuration not stated),0.7,-3.0,0.2,-2.0%[38.3 µM],1.6,6.0
C=CCNC(=O)N1c2ccccc2Sc2ccccc21,-3.9,32.4,0.5,1.5%,1.4,.
CCC(C)C(NC(=O)c1ccccc1NC(=O)c1ccc(OC)cc1)C(=O)NCCCn1ccnc1 (configuration not stated),-0.3,40.2,0.0,0.3%,1.1,26.7
Cc1cc(C)n(-c2nnc(NC(C)(C)C)nn2)n1,0.5,-15.2,-0.6,2.5%,0.0,-0.8
CC(OC(=O)c1cnccn1)C(=O)Nc1nc(-c2cccc([N+](=O)[O-])c2)cs1 (configuration not stated),11.2,0.9,0.3,0.0%,-2.9,.
CCOC(=O)c1[nH]c(C)c(CCC(=O)O)c1C,2.2&-0.2,-6.5&11.3,2.0&0.1,-0.3%,-4.8&-0.1,-2.7&-4.2
O=C(OCc1nc(-c2ccccc2Cl)no1)c1ccco1,0.4,-10.9,0.4,2.8%,7.7,1.7
COCCNC(=O)C1CCCN(c2nn3c(=O)cc(C)nc3s2)C1 (configuration not stated),-2.7,-1.5,0.9,-2.6%,11.8,-0.4
Cc1nn(C)cc1CNC(=O)CCC(=O)O,0.3,-1.4,4.3,1.6%,0.2,-1.1
O=C(COc1ncnc2ccccc12)Nc1ccccc1[N+](=O)[O-],2.5,7.5,0.1,1.3%,-1.9,2.6
O=C(c1ccc(Cl)c(S(=O)(=O)N2CCOCC2)c1)N1CCc2ccccc2C1,3.5,-20.4,0.8,1.2%,-4.2,-14.3
O=C(CC[C@H]1O[C@@H](n2cnc3c(NC(=O)c4ccccc4)ncnc32)[C@H](O)[C@@H]1O)NCCCN1CCCC1=O,-3.1,.,-0.1,-0.2%,3.9,9.6
Cn1nnnc1SCCNCc1ccccc1OCc1ccccc1Cl,-3.2,-3.1,0.0,-0.1%,-0.5,4.6
NC(=O)c1oc2ccccc2c1NC(=O)C1COc2ccccc2O1 (configuration not stated),-4.7,10.5,-0.2,4.3%,2.4,-0.8
CCOC(=O)C1CCN(C(=O)Cn2c(=O)cc(C)c3c(C)nn(C)c32)CC1,.,-16.8,0.5,1.0%,.,.
O=C(Nc1ccc(Cl)cc1)c1cccs1,2.5,2.7,-1.3,0.9%,6.1,9.5
CCCN(CC(=O)Nc1ccc(F)c(F)c1F)CC(=O)Nc1c(Cl)cccc1Cl,-0.6,13.1,0.9,0.8%,3.9,11.1

# A run of entries taken from the entries so far, as a working copy:
SMILES,D2 ag,TRPML1 blocker,TRPML1 agonist,PINK1 modulator,Six1-Eya2 inh,CtBP-E1A inh
Cc1cc(C)n(-c2nnc(NC(C)(C)C)nn2)n1,0.5,-15.2,-0.6,2.5%,0.0,-0.8
CC(OC(=O)c1cnccn1)C(=O)Nc1nc(-c2cccc([N+](=O)[O-])c2)cs1 (configuration not stated),11.2,0.9,0.3,0.0%,-2.9,.
CCOC(=O)c1[nH]c(C)c(CCC(=O)O)c1C,2.2&-0.2,-6.5&11.3,2.0&0.1,-0.3%,-4.8&-0.1,-2.7&-4.2
O=C(OCc1nc(-c2ccccc2Cl)no1)c1ccco1,0.4,-10.9,0.4,2.8%,7.7,1.7
COCCNC(=O)C1CCCN(c2nn3c(=O)cc(C)nc3s2)C1 (configuration not stated),-2.7,-1.5,0.9,-2.6%,11.8,-0.4
Cc1nn(C)cc1CNC(=O)CCC(=O)O,0.3,-1.4,4.3,1.6%,0.2,-1.1

# From PubChem
